High-throughput results: PubChem BioAssay, National Center for Advancing Translational Sciences (NCATS)
TRPML1 ag = activates the human TRPML1 channel; Q9GZU1; AID 624414; 0.12% of 410,000 active; activation, % (test concentration not listed); TRPML1-expressing cells, Ca2+ dye fluorescence, FDSS; host cell line not named in the record; reference of the full effect not given here; in the data active = activation above about 50%; inconclusive = about 30% to 50%; inactive = below about 30%; note: 0% is about no effect; the text of the record puts the active cut at 80%
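In this qHTS format, compounds were pin-transferred onto Ca8-dye-loaded TRPML1-DL cells induced with Tet overnight, and intracellular Ca2+ fluorescence was recorded kinetically for 110 s after a 10 s baseline. A subsequent 4uM final 54-4 (EC80) addition followed by a second 110 s read served as the antagonist phase.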
D2 agonist = agonists of human D2 dopamine receptor (beta-arrestin). P14416. DiscoveRx PathHunter D2 beta-arrestin, luminescence, 90 min; 100% = 57 uM dopamine signal. activation, % (no concentration beside the values). 0.084% of 360,000 active. AID 624465; in the data active = activation above about 40%; inconclusive = about 15% to 40%; inactive = below about 15%; note: compound concentration not given in the record; the text of the record calls up to 30% inactive
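DiscoveRx PathHunter D2 beta-arrestin cells (2,100/well) attached overnight, then compound-stimulated 90 min at 37 C in HBSS/10 mM HEPES/0.1% Tween-20 buffer; beta-galactosidase complementation read by luminescence after 1 h at ambient temperature. Dopamine 57 uM final (EC100) as control.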
CtBP-E1A blk = inhibitors of CtBP/E1A interaction; activity change, % (no concentration beside the values); AlphaScreen GST-E1A/His-CtBP binding, 1536-well; hits give low values; control for the full effect not named in the record; 0.49% of 340,000 active; in the data active means activity change below about -65%; inconclusive means about -30% to -65%; inactive means above about -30%; note: % is set by controls: 0 for no effect and ±100 for the full control effect; compound concentration not given in the record
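AlphaScreen with 125 nM GST-E1A and 125 nM His-CtBP (5X stocks) in Tris pH 8.0, 300 mM NaCl, BSA, Tween 20, TCEP. Compounds preincubated 2 h at 37 deg C, then glutathione donor/nickel acceptor beads added for 1 h at 37 deg C in dark.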
PINK1 expr mod = modulators of PINK1 expression. AID 624263. Potency, µM (titrated, usually from 76.6 µM), without a hit: at the highest dose activation (PINK1 increase), actives largely listed as activators. 0.2% of 410,000 active. PINK1 immunofluorescence, high-content cytometry, 24 h; active = well fitted activation curve with a large enough effect; inconclusive = small, poorly fitted or top-dose-only effect; inactive = flat fitted curve, though single readings scatter; cell line not stated here;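 note: potency is the fitted concentration of half-maximal effect; % of control where 0% means no effect; nearly all actives have a fitted effect of over 65% in size; a mitochondrial uncoupler was the plate control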
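Stable cell line treated 24 h with compounds at 5 concentrations (CCCP controls), then fixed and immunostained for PINK1 plus nuclear and cell stains; PINK1 immunofluorescence quantified by laser-scanning microplate cytometry.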
Six1-Eya2 inh = Six1/Eya2 interaction inhibition. AID 651725. AlphaScreen GST-Six1/His-Eya2 binding, biochemical; hits give low values; control for the full effect not named in the record. 0.56% of 360,000 active. activity change, % (no concentration beside the values); in the data active = activity change below about -65%; inconclusive = about -30% to -65%; inactive = above about -30%; note: % is set by controls: 0 for no effect and ±100 for the full control effect; compound concentration not given in the record
Target sequence (O00167 whole entry, looked up): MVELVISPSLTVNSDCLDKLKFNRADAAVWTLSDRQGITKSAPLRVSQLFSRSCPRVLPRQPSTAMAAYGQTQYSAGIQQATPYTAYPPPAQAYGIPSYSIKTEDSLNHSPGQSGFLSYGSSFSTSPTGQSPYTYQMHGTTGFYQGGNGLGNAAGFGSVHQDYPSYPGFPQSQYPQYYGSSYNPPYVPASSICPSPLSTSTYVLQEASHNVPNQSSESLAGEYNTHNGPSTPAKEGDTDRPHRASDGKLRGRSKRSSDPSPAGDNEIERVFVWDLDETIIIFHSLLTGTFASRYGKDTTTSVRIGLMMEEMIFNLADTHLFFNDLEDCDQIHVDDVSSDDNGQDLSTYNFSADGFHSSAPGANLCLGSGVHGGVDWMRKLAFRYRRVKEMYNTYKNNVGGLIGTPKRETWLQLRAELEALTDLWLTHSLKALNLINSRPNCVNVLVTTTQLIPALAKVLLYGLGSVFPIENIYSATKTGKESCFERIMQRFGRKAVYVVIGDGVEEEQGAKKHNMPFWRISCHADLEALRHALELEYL
Target sequence (Q15475 whole entry, looked up): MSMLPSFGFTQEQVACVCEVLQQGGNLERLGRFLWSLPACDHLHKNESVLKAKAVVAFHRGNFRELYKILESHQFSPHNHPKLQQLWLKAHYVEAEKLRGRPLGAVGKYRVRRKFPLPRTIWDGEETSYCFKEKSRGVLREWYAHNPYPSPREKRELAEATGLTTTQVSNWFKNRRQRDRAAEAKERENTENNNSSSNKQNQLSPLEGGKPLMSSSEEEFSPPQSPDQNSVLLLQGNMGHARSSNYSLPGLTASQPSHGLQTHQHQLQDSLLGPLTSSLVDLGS
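Six1/Eya2 binding was read as AlphaScreen signal after compounds were pinned into GST-Six1 plus His-tagged Eya2 (5X stock 250/500 nM) in pH 8.0 Tris/NaCl/TCEP buffer, beads added, then incubated 1 h, 37 C, dark.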
TRPML1 inh = blocks the human TRPML1 channel; activity change, negative = inhibition, % (test concentration not listed); TRPML1-inducible cells, Ca2+ dye fluorescence, FDSS; hits give low values; inhibition of EC80 agonist-evoked calcium signal; Q9GZU1; 0.02% of 390,000 active; in the data active means activity change below about -50%; inconclusive means about -30% to -50%; inactive means above about -30%;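 note: stimulus is agonist 54-4 at its EC80 concentration; % is set by controls: 0 for no effect and ±100 for the full control effect; compound concentration not given in the record; the text of the record puts the active cut at -80%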
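Tet-induced TRPML1-DL cells loaded with Ca8 no-wash calcium dye were read kinetically on FDSS. Compound addition was followed by EC80 agonist 54-4 (4 uM final); inhibition was read over 110 s.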
Active calls of the source: *; ? = inconclusive; · = no result given; & = joins results of further samples; [ ] = remark or other dose. Rows are unselected. Share with any hit: about 1%.

SMILES	TRPML1 ag	D2 agonist	CtBP-E1A blk	PINK1 expr mod	Six1-Eya2 inh	TRPML1 inh
COCCn1nnnc1C(c1cc2cc(C)ccc2[nH]c1=O)N1CCN(C2CCCCC2)CC1 (stereo not given)	0.5	-0.6	11	0.2%[38.3 µM]	0	-11
NC(=O)c1ccc(Nc2nnc(-c3ccc(O)cc3)c3ccccc23)cc1	-0.2	-3.7	-3	4.1%	?	-8
CC(=O)NC(=S)Nc1ccc(NC(=S)NC(=O)/C=C/c2ccco2)cc1	-0.4	-1.1	8	5.6%	-21	0
O=c1c2ccccc2nnn1Cc1ccccc1	·	-7.1	3	-0.4%	11	·
COc1ccc(NC(=O)COc2cccc3c2CCN(C)C3=O)c(OC)c1	1.4	-2.7	5	2.9%	?	0
Cc1c(C(c2cc3c(cc2Br)OCO3)c2c(C)n(C)n(-c3ccccc3)c2=O)c(=O)n(-c2ccccc2)n1C	-0.5	-4.9	4	2.0%	5	4
CCOC(=O)c1c(-c2ccc(-c3ccccc3)cc2)csc1NC(=O)C1C2CCC(O2)C1C(=O)O (stereo not given)	1.3	-0.7	-11	-0.6%	0	4
COc1cccc(C(=O)NC(=S)N2CCN(c3ccc(C(F)(F)F)cc3[N+](=O)[O-])CC2)c1	-0.4	-0.4	-13	4.2%	-2	0
COC(=O)C1=C(C)N(Cc2ccccc2)C(=NCCc2c[nH]c3ccccc23)N[C@H]1c1cccc(F)c1	0.7	2.4	-5	-1.3%	-22	3
O=C(CNC(=O)c1ccc(Cl)cc1Cl)OCc1cn2cc(Br)ccc2n1	-0.4	0.4	2	0.1%	1	5
COC(=O)c1cc(S(=O)(=O)NCC2CCN(Cc3cc(C)ccc3C)CC2)cn1C	-1.1	-4.0	·	-1.4%	-1	8
Cc1ccc(-c2nc3c(c(SCC(=O)Nc4ccccc4Cl)n2)Cc2c(CO)cnc(C)c2O3)cc1	1.9	·	·	4.1%	·	-11
CCn1cc(S(=O)(=O)Nc2nc3ccc(OC)cc3s2)cn1	0.1	-7.2	-6	1.7%	1	-6
COc1cc2c(cc1OC)C(C)N(CCc1ccc(Cl)cc1)CC2 (stereo not given)	1.4	-9.6	-20	0.2%	-8	0
Cc1ccccc1S(=O)(=O)Cc1ccc(C(=O)NCc2ccccc2Cl)o1	3.7	·	·	1.1%	·	8
O=C(NCCOc1ccccc1)C1=CC=CN2CCS(=O)(=O)N=C12	0.8	1.2	-2	-0.4%	-10	23
Cc1ccc(S(=O)(=O)N2CCN(c3ccccc3)CC2)s1	0.2	4.2	·	0.2%	0	3
O=C(NCc1cccc(C(F)(F)F)c1)c1cccc(S(=O)(=O)N2CCN(Cc3ccccc3)CC2)c1	1.5	-4.7	-22	-3.0%	2	-7
CC(=O)N1c2ccc(S(=O)(=O)N3CCC(C(=O)N4CC(C)CC(C)C4)CC3)cc2CC1C (stereo not given)	1.9	5.2	-10	3.0%	-6	-7
CCc1ccc2c(c1)NC(=O)C2(C)Cc1ccc(Cl)cc1 (stereo not given)	-0.1	-4.5	23	7.5%	10	·
O=S(=O)(c1ccc(F)cc1)N1CCN(c2nc(-c3cccc(Br)c3)nc3ccccc23)CC1	0.2	·	·	3.3%	·	27
COc1cccc(CNC(=O)CCc2c(C)nn(-c3ccc(N4CCOCC4)nn3)c2C)c1	-0.2	·	·	1.3%	·	21
CCS(=O)(=O)N1CCC(C(=O)NCCCN2CCC(Cc3ccccc3)CC2)CC1	0.4	0.2	9	1.8%[38.3 µM]	0	2
CCCN1C(=O)C(Cc2nc3ccccc3c(=O)n2-c2ccccc2)c2ccccc21 (stereo not given)	1.8	-1.7	-2	-0.2%	4	2
CC(=O)CCc1ccc(OCC(O)CNC2CCCc3ccccc32)cc1 (stereo not given)	1.8	1.8	-1	-0.1%	-2	10
Cc1nn(CC(O)COc2ccc3c(c2)CCC3)c(C)c1C (stereo not given)	-0.6	0.6	11	2.7%	5	?
CCCS(=O)(=O)Nc1ccc(Nc2c3ccccc3nc3ccccc23)c(OC)c1	2.1	-3.0	14	-7.2%	?	5
Cc1cccc(/C=N/NC(=O)CNc2cccc3ccccc23)n1	-0.5	3.2	2	-0.1%	-24	-10
Clc1ccc(-c2nc(-c3cc4cc(Cl)ccc4o3)cs2)cc1	0.4	-5.4	-13	2.0%	-1	-5
CCCCOc1ccc(N2CC(C(=O)NCCc3ccc(OC)c(OC)c3)CC2=O)cc1 (stereo not given)	2.1	-0.4	6	1.2%	0	-9
COc1ccccc1NS(=O)(=O)c1cc(C(=O)NCc2ccco2)ccc1C	0.7	-2.3	-3	-1.3%	-2	-2
COc1ccc(C(=O)NCC(c2cccnc2)N2CCc3ccccc3C2)cc1 (stereo not given)	0.0	·	·	0.0%	·	-16
Cc1ccccc1CN1CCC(CNC(=O)Nc2ccc(F)cc2F)CC1	0.1	-3.2	-1	1.5%	-7	-1
Cc1cc(Cl)ccc1OCC(=O)NC1CCCC1	0.5	2.2	54	·	28	-8
N#Cc1c(N)c(C(=O)c2ccccc2)n2c1CCCC2	-0.1	0.5	-6	-1.7%[38.3 µM]	-4	7
Cc1ccc2c(=O)cc(C(=O)N(Cc3ccc(C(C)(C)C)cc3)C3CCS(=O)(=O)C3)oc2c1 (stereo not given)	5.1	·	·	0.9%	·	63
CS(=O)(=O)N1CCC(C(=O)Nc2ccc3c(c2)OCCO3)CC1	-0.3	-2.1	19	-1.7%[38.3 µM]	5	-3
O=c1c2ccccc2nc(SCc2cn3ccsc3n2)n1-c1ccccc1F	5.0	-5.0	-6	-0.8%	-19	23
O=C(COc1cccnc1[N+](=O)[O-])NCc1ccco1	2.2	-4.9	-14	-0.4%	7	4
Cc1ccccc1C(=O)NNC(=O)Cc1ccccc1	-0.4	1.0	23	0.7%[38.3 µM]	0	14
CCOC(=O)C1CCCN(S(=O)(=O)c2ccc(Br)c(OC)c2)C1 (stereo not given)	0.9	-1.4	5	2.5%	28	13
CCOc1ccccc1NC(=O)CSc1nc2c(c(=O)[nH]1)CCC2	3.8	·	·	0.9%	·	-29
Fc1ccc(COc2cccc3cccnc23)cc1	0.4	-0.5	22	-0.5%	5	21
CCCCN1C(N)=NC[C@@H]1Cc1ccc(O)cc1	-0.1	0.1	·	0.6%	0	-14
COc1ccc(CNC(=O)Nc2ccc([N+](=O)[O-])cc2)cc1	1.4&1.2	0.6	-1	19%	-7	-18&19
O=C(O)CCCCN1C(=O)/C(=C\c2ccc(OCc3ccccc3)c(OCc3ccccc3)c2)SC1=S	2.3	-3.2	-11	4.8%	?	-11
N#Cc1c(-c2ccccc2)nc(SCC(=O)Nc2nnc(C(F)(F)F)s2)[nH]c1=O	-0.1	-6.0	-13	-1.3%	-24	11
CCn1nc(C)c(C(=O)Nc2cc(Oc3cc(C)cc(C)c3)cc([N+](=O)[O-])c2)c1C	1.8	1.4	-11	13%	-14	-5
NC(=S)N=Nc1c(O)n(CCCl)c2ccc(Cl)cc12	-0.4	-4.4	-5	2.3%	-12	6
O=C(Cc1ccccc1)Nc1ccc(F)cc1	-0.6	1.8	2	-1.0%	8	-1
O=C(Nc1cccc(-c2cnc3ccccc3n2)c1)C1CC(=O)N(c2ccccc2)C1 (stereo not given)	-0.3	-1.2	-5	3.0%	-26	29
COc1cc2oc(=O)cc(-c3cccc(-c4cccc(C)c4)c3)c2c(OC)c1OC	0.6	-1.0	2	1.3%	0	15
Cc1cc(C)c2nc(NNC(=O)c3ccc(S(=O)(=O)N4CC(C)CC(C)C4)cc3)sc2c1 (stereo not given)	0.2	0.5	-12	11%	1	-4
CCCOc1ccc(C(=O)Nc2ccc(S(=O)(=O)N3CCN(C)CC3)cc2)cc1	0.0	0.2	1	2.1%	2	9
CCN1CCN(c2oc(-c3ccccc3C)nc2S(=O)(=O)c2ccccc2)CC1	1.2	-5.7	14	3.6%	-12	47
CCOC(=O)c1nc(NCc2cccnc2)c2ccccc2n1	-0.9	-0.2	-1	2.9%[38.3 µM]	0	1
COc1ccc(-n2c(=O)c3c4c(sc3n(Cc3ccccc3C)c2=O)CCCC4)c(OC)c1	0.5	·	·	1.8%	·	35
CN(NC(=O)c1ccccc1)c1nc2ccccc2nc1C(F)(F)F	0.3	1.0	3	?	1	-5
N#CC1(Cc2ccccc2Cl)c2ccccc2C=CN1C(=O)c1ccccc1 (stereo not given)	1.3	-5.0	0	0.3%	-14	22
O=C1c2ccccc2C(Nc2ccccc2F)N1c1cccnc1 (stereo not given)	0.4	-6.0	2	5.9%	17	0

Next compounds follow.
SMILES	TRPML1 ag	D2 agonist	CtBP-E1A blk	PINK1 expr mod	Six1-Eya2 inh	TRPML1 inh
Cc1cc(NS(=O)(=O)c2ccc(NC(=O)c3cnc4sccn4c3=O)cc2)nc(C)n1	-0.3	4.7	0	2.6%	-11	50
COc1cc(Cl)c(CN2CCC(CO)(CCOc3ccccc3)CC2)cc1OC	0.6	-3.9	8	0.9%	-3	-7
Cc1cccc(NC(=S)NCC(c2cccnc2)N(C)C)c1C (stereo not given)	0.4	0.0	9	1.0%	12	-11
COC(=O)CCc1c(C)c(C(=O)c2cc(OC)c(OC)c(OC)c2)c2ccccn12	1.9	-4.2	-6	9.6%	-5	16
CCOC(=O)N1CCN(C(=O)c2cccc(F)c2)CC1	2.8	-4.1	2	-1.7%	5	-14
CCCOc1ccc(C(=O)CCNc2cccc(Cl)c2)cc1	1.9	-6.3	9	1.2%	3	-6
Cc1cccc(C(=O)Nc2ccc(OCc3cc(=O)n4c5c(sc4n3)CCCC5)cc2)c1	0.0	·	·	1.2%	·	-17
COc1ccc(CNC(=O)CN(C(=O)c2csnn2)c2cccc(C(C)=O)c2)cc1	-0.3	-2.3	-2	-2.5%	-6	-22

Quoted at random: 2 compounds from above.
SMILES	TRPML1 ag	D2 agonist	CtBP-E1A blk	PINK1 expr mod	Six1-Eya2 inh	TRPML1 inh
Cc1cccc(NC(=S)NCC(c2cccnc2)N(C)C)c1C (stereo not given)	0.4	0.0	9	1.0%	12	-11
CCCOc1ccc(C(=O)CCNc2cccc(Cl)c2)cc1	1.9	-6.3	9	1.2%	3	-6

Complete entries from above. Order of values: TRPML1 ag, D2 agonist, CtBP-E1A blk, PINK1 expr mod, Six1-Eya2 inh, TRPML1 inh
CCOC(=O)c1nc(NCc2cccnc2)c2ccccc2n1 as listed: -0.9, -0.2, -1, 2.9%[38.3 µM], 0, 1
CCCCN1C(N)=NC[C@@H]1Cc1ccc(O)cc1 as listed: -0.1, 0.1, ·, 0.6%, 0, -14
O=C(CNC(=O)c1ccc(Cl)cc1Cl)OCc1cn2cc(Br)ccc2n1 as listed: -0.4, 0.4, 2, 0.1%, 1, 5
COc1cccc(C(=O)NC(=S)N2CCN(c3ccc(C(F)(F)F)cc3[N+](=O)[O-])CC2)c1 as listed: -0.4, -0.4, -13, 4.2%, -2, 0
